HSD17B inh: HSD17B dehydrogenase inhibition; recombinant HSD17B10, NADH fluorescence kinetic; many of its hits are not listed in these tables; Potency, µM (titrated, usually from 57.1 µM), for inactives: at the highest dose activity change, negative = inhibition, hits mostly inhibitors; actives 7.6% (n = 75,000); active = well fitted inhibition curve with a large enough effect; inconclusive = small, poorly fitted or top-dose-only effect; inactive = no such curve, though single readings can be large or run the other way;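 also: the protocol describes HADH2 (HSD17B10) and not the HSD17B4 of the title; nearly all actives have a fitted effect of over 70% in size; most hits overshoot -100% by far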
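20 nM HADH2, pH 9.0 Tris/Tween; cpd preinc 15 min RT; start w/ 1 mM NAD+ + 90 uM b-hydroxybutyryl-CoA; kinetic fluor ex360/em450 q30s x 4 min; delta last-first.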
* marks the source's active call; other numbers are inactive results; ? = inconclusive; [ ] = another dose, or the depositor's remark. % is scaled to controls: 0 for no effect and ±100 for the full control effect; potency is read from the fitted curve at half-maximal effect. An excerpt. The share of hits here may be higher or lower than overall.

The opening 3 records (preview)
SMILES	HSD17B inh
O=C(C1CC1)N1CCC(c2nc(-c3ccc(S(=O)(=O)NCC4CCCO4)cc3)no2)CC1 (stereo unspecified)	3%
COc1ccc(-c2cc(=O)c3c(O)c(OC)c(OC)c(OC)c3o2)cc1	-4%
CC1CCN(CC(=O)NCc2ccccc2)CC1	9%

All compounds of this part (from the top)
SMILES	HSD17B inh
O=C(C1CC1)N1CCC(c2nc(-c3ccc(S(=O)(=O)NCC4CCCO4)cc3)no2)CC1 (stereo unspecified)	3%
COc1ccc(-c2cc(=O)c3c(O)c(OC)c(OC)c(OC)c3o2)cc1	-4%
CC1CCN(CC(=O)NCc2ccccc2)CC1	9%
COC(=O)c1cccc(C23CC4(C2)[C@H](CN(Cc2ccc(-c5ccccc5)cc2)[C@@H]4c2ccccc2)C3c2ccc(C(F)(F)F)cc2)c1 (stereo partly specified)	-2%
CCCCCNC(=O)c1ccc2c(=O)[nH]c3c(C(=O)NCC4CCCO4)sc(=S)n3c2c1 (stereo unspecified)	?
COCc1cc(CN2CCCC2)c(O)c2ncccc12	10%
COc1cc(=O)n(C)c2c(OC[C@@H](O)C(C)(C)O)cccc12	0%[25.6 µM]
CC(=O)OC[C@@H]1O[C@H](C/C=N\O[C@@H](C)c2cc(-c3c(C)cc(C)cc3C)no2)C=C[C@@H]1OC(C)=O	1%[11.4 µM]
Cc1cc(C)n(C(=O)c2cccc(S(=O)(=O)N3CCOCC3)c2)n1	10%
O=c1c(O)c(-c2ccccc2)oc2cc(O)cc(O)c12	-7%
Nn1c(SCC(=O)N2CCCc3ccccc32)nnc1-c1ccc(Cl)cc1	3%
NC(=O)C(Cc1ccccc1)NS(=O)(=O)c1ccc(N2CCCC2=O)cc1 (stereo unspecified)	6%
COc1ccc(C(=O)c2ccccc2)c(O)c1O	?
C=CCn1c(SCC(=O)N2CCN(c3ccc(F)cc3)CC2)nnc1-c1cccs1	6%
C=CCC(NCc1ccco1)c1ccc(OC)cc1OC (stereo unspecified)	-9%
COc1ccc(C2CC(=O)C3=C(C2)Nc2ncnn2C3c2ccccc2C)cc1 (stereo unspecified)	-13%
CCN(CC)CCCN(Cc1cc2cc3c(cc2[nH]c1=O)OCCO3)C(=O)Nc1ccc(F)cc1	25µM*
CCOC(=O)n1ccc(C(=O)Nc2ccccc2F)n1	-1%
Cc1ccc(C2C3CSCC=C3C(C#N)=C(N)C2(C#N)C#N)cc1 (stereo unspecified)	25µM*
Cc1ccc(-c2cc(C(=O)N3CCN(C(=O)c4ccco4)CC3)no2)cc1	-8%

The final three entries of the part before are carried over, then new ones follow.
SMILES	HSD17B inh
CCOC(=O)n1ccc(C(=O)Nc2ccccc2F)n1	-1%
Cc1ccc(C2C3CSCC=C3C(C#N)=C(N)C2(C#N)C#N)cc1 (stereo unspecified)	25µM*
Cc1ccc(-c2cc(C(=O)N3CCN(C(=O)c4ccco4)CC3)no2)cc1	-8%
CCn1c(SCC(=O)N2c3ccccc3Sc3ccccc32)nnc1-c1ccco1	2%
CCOc1ccc(C2CC(c3cccc(OC)c3OC)n3nnnc3N2)cc1Cl (stereo unspecified)	10%
Cc1cc(NC(=O)CCC(=O)N(Cc2cccs2)C(C(=O)NC2CCCC2)c2ccncc2)no1 (stereo unspecified)	-15%
Cc1oc(-c2ccccc2Cl)nc1CSCC(=O)N1CCCC1	-2%
CCOC(=O)C(C(=O)OCC)C(C#N)c1ccccc1 (stereo unspecified)	1%
Cc1cccc2cc(CN(Cc3ccc(F)cc3)Cc3nnnn3C3CCCC3)c(=O)[nH]c12	?
O=C(Nc1nnc(Cc2ccccc2)s1)c1cccs1	5%
Cc1[nH]c2ccccc2c1Cc1nnc(SCC(N)=O)o1	0%
Clc1ccc(Cl)c2sc(N3CCOCC3)nc12	-1%
CCOC(=O)CSc1ncnc2c1cnn2-c1ccc(C)cc1	25µM*
COc1ccc(-c2noc(CCCOc3ccccc3)n2)cc1OC	-16%
O=c1c2c(nc3c(-c4ccccc4)c[nH]n13)CCCC2	1µM*
CC1(C)C=Cc2c(c3ccccc3[nH]c2=O)O1	5%
Cc1cn([C@H]2C[C@H](O)[C@@H](COC(N)=O)O2)c(=O)[nH]c1=O	7%[11.4 µM]
COc1ccc(CN(CCCN2CCOCC2)S(=O)(=O)N(C)C)cc1OC	9%
CC1(C)CC(CCC(=O)Nc2ccccc2Cl)C(=O)O1 (stereo unspecified)	6%
COc1ccc(-c2nn(CCC(=O)O)cc2CCC(=O)O)cc1	2%
COc1ccc(-n2c(C)cc(C(=O)CSc3nnc(-c4cccs4)o3)c2C)cc1	?
O=C(NCCN1CCCC1)C1COc2ccccc2O1 (stereo unspecified)	-1%
CCOCCCNS(=O)(=O)c1ccc2c(c1)CCN2C(=O)CC	-2%
C=CCNc1sc(C(=O)C(C)(C)C)c(N)c1C#N	-22%
COc1ccccc1-c1cn(S(=O)(=O)c2ccc(F)cc2)nc1N	-9%
CCSc1nnc(NC(=O)c2csc3c2CCC(C)C3)s1 (stereo unspecified)	-22%
Cn1nnnc1SCC(=O)N1CCN(C(c2ccccc2)c2ccccc2)CC1	6%
COc1cc(O)c(NC(C)=O)c2nonc12	0%
O/N=C(\c1ccc(Cl)cc1)c1cc2ccccc2o1	-8%
CCn1c2ccccc2c2nnc(SCC(=O)NCc3cccs3)nc21	6%
Cc1nc2c(-c3ccccc3)c(C)nn2c(C)c1CCC(=O)NCc1ccco1	-1%
CCOC(=O)c1cc2sccc2n1CC(=O)N1CCCc2ccccc21	-4%
CCn1c(CNC(=O)c2ccc(OC)cc2)nnc1SCC(=O)c1ccccc1	-9%
CCOc1ccc(OCC)c(NC(=O)c2ccc(CNc3c(N4CCOCC4)c(=O)c3=O)cc2)c1	?
Cc1nn(Cc2ccc(F)cc2)c(C)c1NC(=O)c1cc(-c2ccco2)on1	?
Clc1ccc(OCc2nnc(SCCN3CCCCC3)n2Cc2ccco2)cc1	-15%
CC1(C(=O)O)CCC(C(=O)NCCc2ccccc2)C1(C)C (stereo unspecified)	6%
COc1cccc(NC(=O)Nc2nnc(N3CCCCC3C)s2)c1 (stereo unspecified)	3%
O=c1c2c(nc3n1CCCCC3)-c1ccccc1CC21CCCC1	0%
CCOC(=O)c1cnc(-n2nc(C)cc2C)nc1Nc1cccc(C(C)=O)c1	6%
CC(C)(C)c1ccc(C(=O)/C=C2\NC(=O)CS2)cc1	-8%
CC(=O)C1=C(C)OC(N)=C(C#N)C1c1ccco1 (stereo unspecified)	?
O=S(=O)(Nc1ccc(N2CCOCC2)cc1)c1cccs1	-14%
CS(=O)(=O)N(CC(=O)Nc1ccc2c(c1)OCCO2)c1ccc2c(c1)OCO2	-8%
Brc1ccccc1CN1CCC(N2CCCCC2)CC1	5%
Cc1cnc(NC(=O)CSc2nnc(-c3cccs3)n2C)s1	17%
Cc1cc(C)n2nc(C(=O)Nc3cccnc3)nc2n1	4%
CC(=O)N1CC=CC1(CC(C)C)C(=O)NCc1ccc(C)o1 (stereo unspecified)	-7%
Cc1ccc(C(=O)N2CCN(c3ccccc3)CC2)cc1C	5%
Cc1cc(C)c(C#N)c(=N)o1	32µM*
O=c1cc(N=Nc2ccc(O)cc2)[nH]c(=O)[nH]1	4%[11.4 µM]
CCOC(=O)Nc1oc2ccccc2c(=O)c1CN1CCOCC1	?
O=c1[nH]c(SCc2cccc(Cl)c2)nc2c1CCCC2	2%
CN1C(=S)SC(C)(C)C1/[N+]([O-])=C/c1cccnc1 (stereo unspecified)	9%
Cc1cc(NC(=O)c2ccccc2NS(=O)(=O)c2c(C)c(C)cc(C)c2C)no1	32µM*
CCOC(=O)N1CCN(C(=O)Cc2cccs2)CC1	3%
O=C(Nc1c(C(=O)NCc2ccco2)cnn1-c1ccccc1)c1cccc(F)c1	6%
CC(C)N(CCO)C(=O)C(c1ccccc1)c1ccccc1	14%
COc1ccc(-n2c(Cc3cccn3C)nnc2SCC(=O)NC2CCCC2)cc1	9%
O=C(c1ccc(NS(=O)(=O)c2cccc3cccnc23)cc1)N1CCOCC1	5%
CC(C)c1c(O)ccc2c1CCC1C(C)(C)CCC[C@@]21C (stereo partly specified)	7%
COC(=O)CN1C(=O)COc2ccc(Cl)cc21	-24%
CCOC(=O)c1ccc(NC(=O)C(CC)CC)cc1	0%
The list continues:
SMILES	HSD17B inh
Cc1ccc(NC(=O)CN2C(=O)COc3ccc(C)cc32)nc1	6%
O=C(CCCSc1nc2ccccc2s1)NC1=NCCS1	-9%
O=C(Cn1c(=O)[nH]c2ccsc2c1=O)NC1CCCCC1	-7%
CCCNC(=O)OC[C@@H]1O[C@H](CCO/N=C(\C)CCC(=O)OC[C@@H]2O[C@H](C#Cc3ccccc3)C=C[C@@H]2Oc2ccc(C)cc2)C=C[C@@H]1Oc1ccc(OC)cc1	4%[11.4 µM]
CCCN1CCN(C(=O)c2cccc3c2C(=O)N(CCOC)C3)CC1	?
COc1ccc(OC)c(NC(=O)CN2CCC(C(=O)c3ccc(C)cc3)CC2)c1	14%
Cc1ccc(NC(=O)Cn2c(=O)n(CCCCC(=O)NCc3ccco3)c(=O)c3ccccc32)cc1	7%
N#Cc1ccccc1NCc1ccccc1	?
COc1ccc(OC)c(-c2cc(C(=O)Nc3cc(C)n(Cc4ccc(Cl)cc4)n3)no2)c1	32µM*
Cc1ccc2c(c1)NC(=O)C(CC(=O)NCc1cccnc1)O2 (stereo unspecified)	-2%
O=C1C(C=NCCCN2CCOCC2)=C(O)c2ccccc21	1%
CC1C(O)=C(c2nc3ccccc3[nH]2)C(=N)N1c1ccccc1 (stereo unspecified)	-8%
O=C(CSc1nnc(SCc2ccc(Cl)cc2)s1)N1CCN(C(=O)c2ccco2)CC1	0%
CC[C@]1(c2ccccc2)NC(=O)N(C)C1=O	-2%[25.6 µM]
Cc1cc(C(=O)OCC(=O)N(C)C2CCS(=O)(=O)C2)c(C)n1-c1ccccc1 (stereo unspecified)	5%
COC(=O)c1ccc(C(NC(=O)OCc2ccccc2)/C(C)=C/[C@@H](C)C(=O)NCCO)cc1 (stereo partly specified)	3%
O=C(Nc1ccc2c(c1)OCCO2)C1CCCN(S(=O)(=O)c2cccnc2)C1 (stereo unspecified)	1%
N=C1Sc2ccccc2C2=NCCCN12	1.6µM*
COc1ccc(O)c(-c2cn[nH]c2-c2cccs2)c1	2%
Cn1c(NC(=O)c2cc(-c3ccc4c(c3)OCO4)nc3ccccc23)cc(=O)n(C)c1=O	62%[activator]

Brought forward from above: two entries, followed by the next part.
SMILES	HSD17B inh
COc1ccc(O)c(-c2cn[nH]c2-c2cccs2)c1	2%
Cn1c(NC(=O)c2cc(-c3ccc4c(c3)OCO4)nc3ccccc23)cc(=O)n(C)c1=O	62%[activator]
O=C(CSc1nc(O)c(C2CCCCC2)c(=O)[nH]1)Nc1ccc(Cl)cc1	-7%
Cc1cc(C)nc(SCC(=O)N2CCOCC2)n1	1%
COc1cccc(-c2cc(C(=O)N3CCN(C(c4ccccc4)c4ccccc4)CC3)no2)c1	5%
COCC(C)NC(=O)c1cc(-c2ccccc2OC)on1 (stereo unspecified)	-16%
COc1ccc(OC)c(S(=O)(=O)NCc2cccnc2)c1	13%
CCN(CC)S(=O)(=O)c1ccc2c(c1)nc(SCn1nnc3ccccc3c1=O)n2CC	-10%
Cc1ccc(C(=O)Nc2ccc3c(c2)CCC3)o1	-3%
O=C(O)CCn1c(SCc2ccccc2)nc2ccccc21	3%
O=c1[nH]c2cc(Cl)cc(Cl)c2[nH]c1=O	32µM*
O=c1[nH]c(=S)c2[nH]c(=O)n(-c3ccccc3)c2[nH]1	-8%[11.4 µM]
CCCCCn1c(=O)[nH]c2cc(C(=O)O)ccc2c1=O	25µM*
CC(C)CCNC(=O)CN(CC1CCCO1)C(=O)CCC(=O)Nc1nccs1 (stereo unspecified)	-1%
CCNc1nc(NCC)n2c(SCC(=O)O)nnc2n1	4%
CCCOc1ccccc1Cn1c(=O)oc2ccc(C)cc21	-1%
COC(=O)c1cc(OC)c(OC)cc1NC(=O)CC1CCCCC1	25µM*
O=C1c2cccnc2C(=O)N1c1ccccc1-c1ccccc1	-2%
CCc1c(C)nc2ncnn2c1N1CCCC(C(=O)NCc2ccco2)C1 (stereo unspecified)	4%
O=C(C[N+]12CN3CN(CN(C3)C1)C2)c1ccc(-c2ccccc2)cc1	-18%[11.4 µM]
Nc1ccccc1NC1=CC(=O)CC(c2ccco2)C1 (stereo unspecified)	?
COC(=O)c1ccc(N2C(=O)CC(Sc3n[nH]c(C)n3)C2=O)cc1 (stereo unspecified)	-21%
CCOc1ccccc1C1C(C#N)=C(N)Oc2cc(C)n(Cc3ccccn3)c(=O)c21 (stereo unspecified)	-17%

Ordered by number of heavy atoms (ascending): part of the list above.
SMILES	HSD17B inh
Cc1cc(C)nc(SCC(=O)N2CCOCC2)n1	1%
COc1ccc(OC)c(S(=O)(=O)NCc2cccnc2)c1	13%
O=C1c2cccnc2C(=O)N1c1ccccc1-c1ccccc1	-2%
COC(=O)c1ccc(N2C(=O)CC(Sc3n[nH]c(C)n3)C2=O)cc1 (stereo unspecified)	-21%
O=C(C[N+]12CN3CN(CN(C3)C1)C2)c1ccc(-c2ccccc2)cc1	-18%[11.4 µM]
O=C(CSc1nc(O)c(C2CCCCC2)c(=O)[nH]1)Nc1ccc(Cl)cc1	-7%
COc1cccc(-c2cc(C(=O)N3CCN(C(c4ccccc4)c4ccccc4)CC3)no2)c1	5%

Bioassay records: PubChem, National Center for Advancing Translational Sciences (NCATS)
